Bioassay records (PubChem)
Beta2AR agonist: agonists of human beta-2 adrenergic receptor inducing internalization. 0.43% of 340,000 active. P07550. response, % (no concentration beside the values). Am2.2-beta2AR cells, FAP receptor internalization, flow cytometry; reference of the scale not given here;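 active means response above a set limit, near 3 SD of response in nonfluorescent compounds, cut at about 42% in these data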;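 further: stock transfer was 100 nL into about 11 µL; a reference agonist was the positive control; negative values mostly stem from fluorescent compounds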
Target sequence (P07550 whole entry, looked up): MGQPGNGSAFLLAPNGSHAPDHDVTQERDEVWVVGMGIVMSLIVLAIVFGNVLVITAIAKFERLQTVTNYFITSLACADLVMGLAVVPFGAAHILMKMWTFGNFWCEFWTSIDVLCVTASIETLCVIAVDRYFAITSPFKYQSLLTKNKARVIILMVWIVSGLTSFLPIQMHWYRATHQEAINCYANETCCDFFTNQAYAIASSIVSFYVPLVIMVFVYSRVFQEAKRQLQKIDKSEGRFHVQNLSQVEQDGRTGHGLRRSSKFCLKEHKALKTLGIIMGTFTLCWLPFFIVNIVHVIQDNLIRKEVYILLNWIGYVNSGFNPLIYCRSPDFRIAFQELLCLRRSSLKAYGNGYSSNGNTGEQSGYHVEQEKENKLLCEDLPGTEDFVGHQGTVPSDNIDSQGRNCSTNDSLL
Calb FLC: C. albicans growth modulation with fluconazole | C. albicans CaCi-2 (fluconazole-resistant clinical isolate) + fluconazole, Alamar Blue growth, 48 h | growth inhibition, % (test concentration not listed) | 0.57% of 300,000 active;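 active means most replicates above 75%; inconclusive means exactly half above 75%; inactive means most below 75%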;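 further: all wells also contain fluconazole at 8 µg/ml as a sub-toxic cotreatment; 0% = median of DMSO wells and 100% = median of geldanamycin control wells; wells of about 8 µL received 7.5 nL stock; the first replicate is given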
RanGTP-Imp inh: inhibitors of RanGTP-importin-beta interaction, primary screen, biochemical, FRET, CFP-Ran, YFP-importin-beta, homogeneous; cell-free CFP-Ran/YFP-importin-beta FRET ratio; inhibition, % (concentration not given with the values); 1.1% of 300,000 active; AID 2216;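 active means most replicates above 15%; inconclusive means exactly half above 15%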;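 further: 0% = DMSO wells and 100% = Ran loaded with GDP instead of GTP; wells of about 40 µL received 100 nL stock; the first replicate is given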
Vif TR-FRET: inhibitors of Vif binding to APOBEC3G peptide, primary screen, biochemical, TR-FRET, GST-Vif 1-94, biotin-A3G peptide, dose response retest (AID 1117319); TR-FRET GST-Vif / biotin-A3G peptide binding; higher % means a stronger effect; test concentration not given here; strong numbers were not always called active; inhibition, %; hits with a dose series show IC50 in µM; 0.57% of 260,000 active;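 active means above the screen mean plus three standard deviations and confirmed in dose response; inconclusive means results disagree or hit not tested in dose response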;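 further: Vif residues 1-94 fused to GST binding biotinylated APOBEC3G peptide 110-148; 0% = full assay without inhibitor and 100% = GST in place of GST-Vif; retest series ran down from 100 µM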
ALR H2O2 inh: inhibitors of human sulfhydryl oxidase ALR; P55789; purified ALR, DTT oxidation, H2O2 HRP-luminol luminescence; inhibition, % (no concentration beside the values); 3.8% of 290,000 active; AID 485317;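 active means mean and each replicate at 75% or more; inconclusive means only one of the two met; inactive means neither met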;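 further: stock transfer was 7.5 nL into about 7.5 µL; 0% = neutral wells and 100% = wells with inactivated enzyme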
Target sequence (P55789 whole entry, looked up): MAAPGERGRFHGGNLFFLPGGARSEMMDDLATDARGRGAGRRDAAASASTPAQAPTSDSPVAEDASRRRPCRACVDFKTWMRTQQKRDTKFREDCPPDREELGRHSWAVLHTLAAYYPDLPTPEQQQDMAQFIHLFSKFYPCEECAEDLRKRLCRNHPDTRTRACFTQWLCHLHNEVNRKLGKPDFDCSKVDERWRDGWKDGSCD
HNF4A DNA FP: change in binding of human HNF4 alpha to DNA | HNF4a-FITC DNA binding, fluorescence polarization, 1 h | activity change, % at 10 µM | 0.3% of 360,000 active; in the data active means activity change above about 30%, passing the limit was not always enough;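 further: controls were the assay level and a saturating level of protein; the project sought stronger binding though the title names inhibitors; some compounds called inactive have numbers as strong as hits; positive values seem to mean higher polarization but the record does not say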
Target sequence (P41235 whole entry, looked up): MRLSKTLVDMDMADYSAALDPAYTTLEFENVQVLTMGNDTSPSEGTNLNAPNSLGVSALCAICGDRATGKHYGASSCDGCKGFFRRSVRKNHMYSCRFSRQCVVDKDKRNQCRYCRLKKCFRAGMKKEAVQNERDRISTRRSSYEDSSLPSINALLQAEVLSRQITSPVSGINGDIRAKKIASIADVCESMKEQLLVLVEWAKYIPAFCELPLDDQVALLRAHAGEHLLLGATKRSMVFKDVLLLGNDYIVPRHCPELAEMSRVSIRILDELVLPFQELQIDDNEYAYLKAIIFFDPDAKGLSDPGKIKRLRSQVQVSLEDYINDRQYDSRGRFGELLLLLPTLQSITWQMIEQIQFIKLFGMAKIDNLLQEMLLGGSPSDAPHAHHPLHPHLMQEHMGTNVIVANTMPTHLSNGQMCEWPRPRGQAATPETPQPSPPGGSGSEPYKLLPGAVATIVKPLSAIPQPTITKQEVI
LANA-H2B inh: blocks KSHV LANA binding to histone H2A/H2B; AID 2629; inhibition, % (no concentration beside the values); 0.6% of 320,000 active; cell-free LANA-H2A/H2B peptide, fluorescence polarization; in the data active means inhibition mostly above about 10%, no sharp cut-off; inactive means mostly below about 6.7%;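 further: stock transfer was 7.5 nL into about 10 µL; 0% = median of vehicle wells and 100% = median of positive control wells; one replicate is shown; the record names a cut of 25% in any replicate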
Active calls of the source: *; ? = inconclusive; . = no result given; & = joins results of further samples. No enrichment for hits. Share with any hit: about 6.3%.

Start of the listing, in advance:
SMILES	Beta2AR agonist	Calb FLC	RanGTP-Imp inh	Vif TR-FRET	ALR H2O2 inh	HNF4A DNA FP	LANA-H2B inh
Cc1ccc(NC(=O)CCN2CCN(CCO)CC2)cc1Br	10.5	-2.6	2.9	6.8%	39.6	0.0	-6.7
Cc1cccn2c(=O)c3cc(S(=O)(=O)c4ccc(Br)cc4)c(=N)n(C4CCCC4)c3nc12	-1.6	-3.0	2.6	.	-5.7	-0.7	5.7
CCOc1ccc(S(=O)(=O)N(CCO)CCO)cc1-c1nc2c(C(C)(C)C)nn(C)c2c(=O)[nH]1	-6.8	15.7	4.9	20.9%	0.7	-6.8	-0.1

Main list, repeating the preview:
SMILES	Beta2AR agonist	Calb FLC	RanGTP-Imp inh	Vif TR-FRET	ALR H2O2 inh	HNF4A DNA FP	LANA-H2B inh
Cc1ccc(NC(=O)CCN2CCN(CCO)CC2)cc1Br	10.5	-2.6	2.9	6.8%	39.6	0.0	-6.7
Cc1cccn2c(=O)c3cc(S(=O)(=O)c4ccc(Br)cc4)c(=N)n(C4CCCC4)c3nc12	-1.6	-3.0	2.6	.	-5.7	-0.7	5.7
CCOc1ccc(S(=O)(=O)N(CCO)CCO)cc1-c1nc2c(C(C)(C)C)nn(C)c2c(=O)[nH]1	-6.8	15.7	4.9	20.9%	0.7	-6.8	-0.1
CCN1CCN(S(=O)(=O)c2ccc(Cl)c(C(=O)Nc3ccc(OC(F)F)cc3)c2)CC1	-3.2	-8.7	-1.9	.	-3.5	2.0	-0.9
CN(C)CCCN(C(=O)c1ccc2c(c1)CCCC2)c1nc2ccc(Cl)cc2s1	27.4	-28.8	-1.6	.	-1.4	-1.5	1.3
C/C(=N\NC(=O)c1ccncc1)C12CC3CC(CC(C3)C1)C2	-4.2	2.4	0.9	1.2%	18.3	3.9	-0.8
COc1ccc(CCN2C(=O)NC(NC(=O)CC(C)C)(C(F)(F)F)C2=O)cc1OC (centres undefined)	-3.9	5.9	1.2	9.6%	-6.9	1.4	-1.2
COc1ccc(NC(=O)CSc2ccccc2)cc1S(=O)(=O)N1CCOCC1	-5.5	-6.5	?	.	-6.0	-1.1	4.6
Cc1nn(C)c(C)c1CNC(=O)/C=C/c1ccccc1F	2.5	5.7	1.0	-2.1%	-4.9	0.6	-6.2
OC12CCCCC1C(c1ccc3c(c1)OCO3)N(Cc1ccc(F)cc1)CC2 (centres undefined)	-3.1	-60.4	-0.7	7.9%	-9.7	-0.6	-3.3
COC(=O)c1sccc1-c1ccc(/C=N/OC(=O)c2cccs2)o1	9.8	4.5	-0.2	.	.	3.8	6.1
Cc1cc(=O)n2c(sc3ccccc32)c1C#N	-1.8	0.5	-4.4	.	-1.7	2.5	11.8
COc1ccc(NC(=O)CN(C)C(=O)c2ccc3ccccc3n2)cc1	2.5	.	.	0.1%	3.0	5.8	2.0
O=S(=O)(c1ccc(S(=O)(=O)N2CCCC3(CCCCC3)C2)cc1)N1CCCCC1	0.3	-2.7	-0.9	-1.3%	0.0	2.0	0.5
Cn1nnnc1SCC(=O)Nc1ccccc1C(=O)NCc1ccccc1	-2.4	1.8	1.9	25.0%	-8.0	-0.4	2.7
CCOC(=O)C1=C(c2ccccc2)OC(N)=C(C#N)C1c1cccnc1 (centres undefined)	1.6	1.9	-1.1	.	-0.6	-5.5	-1.3
CCCOc1ccc(C(=O)NCCO)cc1	-3.6	-6.4	-6.2	1.5%	4.9	2.0	-1.0
O=C1CC[C@@H](CN(Cc2ccccn2)Cc2nc(-c3ccc(C(F)(F)F)cc3)no2)N1	-8.7	5.6	-3.1	-3.8%	1.1	1.0	2.8
O=C(NN=C1CCCC1)c1cc(O)cc(O)c1	0.4	-7.2	4.2	15.9%	53.8	-9.3	2.2
Cn1c(SCC(=O)NCc2ccc3c(c2)OCO3)nnc1-c1cc2ccccc2cc1O	-4.7	26.9	5.4	5.7%	5.5	1.3	-0.6
COc1ccc2c(c1)CCCC21NC(=O)NC1=O (centres undefined)	-1.8	16.7	7.7	5.3%	-2.6	-1.7	5.8
O=C(O)c1cc(-c2ccccc2)nc(-c2ccccc2)c1	2.3	.	.	10.6%	.	6.4	-0.2
COc1cc2c(cc1NC(=O)C(C)N1CCN(S(=O)(=O)c3ccc(C)c(C)c3)CC1)oc1ccccc12 (centres undefined)	-8.6	5.5	5.3	16.2%	-14.5	-1.4	-8.9
Cc1cc(C)n(-c2nc3sc4c(c3c3nnc(SCC(N)=O)n23)CC(C)(C)OC4)n1	-6.3	2.8	4.1	10.4%&7.8%	.	-3.5	.
Nc1ccc(C(=O)N2CCCC2)cc1CS(=O)(=O)c1ccc(Cl)cc1	-1.4	25.9	3.6	-0.3%	.	-3.8	0.0

Part of the list above, field by field:
CN(C)CCCN(C(=O)c1ccc2c(c1)CCCC2)c1nc2ccc(Cl)cc2s1
  Beta2AR agonist: 27.4
  Calb FLC: -28.8
  RanGTP-Imp inh: -1.6
  Vif TR-FRET: .
  ALR H2O2 inh: -1.4
  HNF4A DNA FP: -1.5
  LANA-H2B inh: 1.3
C/C(=N\NC(=O)c1ccncc1)C12CC3CC(CC(C3)C1)C2
  Beta2AR agonist: -4.2
  Calb FLC: 2.4
  RanGTP-Imp inh: 0.9
  Vif TR-FRET: 1.2%
  ALR H2O2 inh: 18.3
  HNF4A DNA FP: 3.9
  LANA-H2B inh: -0.8

(continued)
SMILES	Beta2AR agonist	Calb FLC	RanGTP-Imp inh	Vif TR-FRET	ALR H2O2 inh	HNF4A DNA FP	LANA-H2B inh
Nc1ncnc2nc(SCC(=O)Nc3cccc(C(F)(F)F)c3)[nH]c12	-6.9	2.4	-1.2	.	-12.6	-1.5	-6.0
CC(C)(O)[C@H](O)COc1c2occc2cc2ccc(=O)oc12	-18.9	1.4	3.3	2.8%	-17.6	-2.6	4.4
O=C(CSc1nnc(-c2cccs2)n1-c1ccccc1)NCc1ccc2c(c1)OCO2	-8.1	-8.9	3.8	6.9%	10.2	1.9	4.0
COC(=O)c1c(NC(=O)CC2SC(N)=NC2=O)sc2c1CCC(C)C2 (centres undefined)	8.3	11.6	0.5	.	7.1	0.2	10.6
CC(=O)c1cccc(NC(=O)NCc2cccnc2)c1	-1.6	19.5	1.6	-2.5%	-3.0	1.7	3.9
Cc1cc(C(=O)N/N=C/c2ccc([N+](=O)[O-])s2)c2ccccc2n1	2.7	30.5	-0.5	.	-28.7	3.0	0.5
Cc1nc2ccccc2n1Cc1n[nH]c(=S)n1-c1ccc(Cl)cc1	5.2	-1.8	0.0	-7.7%	44.4	0.2	-4.6
CCCCn1c(N)c(N(CCC(C)C)C(=O)c2sc3nc4n(c(=O)c3c2C)CCC4)c(=O)[nH]c1=O	-8.0	8.2	1.3	.	-1.8	-1.3	2.8
CCn1nc(C)c(CNC(=O)CC2C(=O)NCCN2CC(C)(C)C)c1C (centres undefined)	-3.6	-3.5	-0.4	8.0%	-9.3	-1.1	-0.3
Cc1ccc(CSc2nnc([C@@H]3CCCN3C(=O)OC(C)(C)C)o2)cc1	-1.5	-0.9	-0.3	-2.4%	.	-1.8	-2.7
O=C(N/N=C/c1cc2c(cc1Cl)OCO2)c1cccc(Br)c1	0.8	-8.6	0.2	0.2%	-8.4	0.6	1.6
O=C(CSc1ccc([N+](=O)[O-])cc1)NCC1CCCCC1	-1.8	14.1	-2.5	-6.5%	-11.5	0.1	1.2
Fc1ccc(CNc2ccccn2)cc1	-8.7	6.0	1.1	4.6%	-1.3	-0.7	-1.6
CCCC1(C(=O)OCC)NC(c2ccc(N(C)C)cc2)C2C(=O)N(c3ccc(F)cc3)C(=O)C21 (centres undefined)	0.7	-14.1	-2.6	-0.5%	-1.8	-2.3	2.3
CCN=C1S/C(=C\c2ccc(O)c(OCC)c2)C(=O)N1CC	-3.4	25.2	?	-5.5%	43.6	2.9	0.8
O=C(CN1CCOCC1)Nc1ccc(-c2nc3ccccc3[nH]2)cc1	20.7	-3.7	0.5	-1.6%	-11.2	2.5	0.9
CC(C)OCCCNc1nc2c(c(=O)n(Cc3ccccc3F)c(=O)n2C)n1C	-5.3	-27.1	-1.2	-3.4%	-0.4	-1.4	-0.6
Cc1nn(Cc2ccc(Cl)cc2)c(C)c1NC(=O)c1ccc([N+](=O)[O-])cc1	7.0	0.1	2.9	4.5%	-9.1	3.2	-3.2
CC1(C)OC(=O)C(=CSc2ccc(C(C)(C)C)cc2)C(=O)O1	-2.0	-16.6	-2.9	4.9%	97.7*	2.7	-6.7
O=C1NCC(CN(c2ccccc2)c2ccccc2)O1 (centres undefined)	3.5	-34.0	2.0	0.7%	-6.5	4.5	-1.1
CN1CCN(Cc2cccc(Oc3ccc(Cl)cc3)c2)CC1	5.7	-14.7	9.3	-1.4%	-23.3	3.7	-4.6
Cc1c(-c2c(C#N)c(N)nc3c2CCCCCC3)cnn1C	6.8	1.7	4.1	-6.0%	0.9	0.5	9.2
CC(C)(C)c1ccc(-c2conc2N)cc1	10.8	-10.5	0.9	11.9%	1.0	-1.0	-4.9
COc1ccc(N2CC(NS(=O)(=O)c3cccs3)CC2=O)cc1 (centres undefined)	3.5	4.1	-3.3	-6.1%	-2.3	5.0	-0.8
Cc1ccccc1CN1CCN(C2CCC2)CC1CCO (centres undefined)	0.7	-7.0	-3.8	-0.5%	4.5	-0.8	2.7

Ordered by SMILES length (largest number first): some entries from above
SMILES	Beta2AR agonist	Calb FLC	RanGTP-Imp inh	Vif TR-FRET	ALR H2O2 inh	HNF4A DNA FP	LANA-H2B inh
CC(C)(O)[C@H](O)COc1c2occc2cc2ccc(=O)oc12	-18.9	1.4	3.3	2.8%	-17.6	-2.6	4.4
O=C(NN=C1CCCC1)c1cc(O)cc(O)c1	0.4	-7.2	4.2	15.9%	53.8	-9.3	2.2
CCCOc1ccc(C(=O)NCCO)cc1	-3.6	-6.4	-6.2	1.5%	4.9	2.0	-1.0

Going on with the list:
SMILES	Beta2AR agonist	Calb FLC	RanGTP-Imp inh	Vif TR-FRET	ALR H2O2 inh	HNF4A DNA FP	LANA-H2B inh
Cc1ccc(Nc2c(O)nc[nH]c2=O)cc1C	-1.2	.	.	-2.3%	.	-1.0	.
O=C(CCc1c[nH]c2ccccc12)NC(Cc1ccccc1)C(=O)O (centres undefined)	-10.3	-2.7	1.6	-5.1%	2.5	1.1	-0.5
COc1ccc(C)cc1S(=O)(=O)N1CCC2(CC1)OCCN2S(=O)(=O)c1cccs1	-0.6	-4.0	-1.4	0.2%	-16.8	-2.5	1.3
COc1ccc(OC)c(NC(=O)c2cc3ccccc3cc2OC)c1	-9.7	-0.7	-1.4	.	-9.4	2.4	-7.0
CC(=O)N1CSCC1C(=O)NNS(=O)(=O)c1cccc(C(F)(F)F)c1 (centres undefined)	-10.0	-1.6	3.8	-0.3%	-2.5	0.9	1.6
Cc1ccc(-n2c(SCC(=O)Nc3ccc4c(c3)OCO4)nnc2-c2ccccn2)cc1	-13.3	-13.6	-0.2	-5.4%	-2.0	-4.1	-0.1
O=S(=O)(c1ccc(F)c(F)c1)N1CCN(CCc2ccccc2)CC1	5.0	5.9	7.7	.	-2.3	-0.3	-0.7
CCn1cc(CN2CCCC(C(=O)Nc3cccc(-c4cc5ccccc5[nH]4)c3)C2)cn1 (centres undefined)	10.0	1.9	-5.4	.	19.6	0.5	-2.6
CCN(Cc1ccccc1)C(=O)CSc1nc(C)cc(=O)[nH]1	4.1	-3.0	-0.7	-16.8%	.	1.0	-1.2
Cc1csc(NC(=O)CCCC(=O)c2ccccc2)n1	7.9	0.2	?	1.2%	-10.2	2.0	-0.2
